GLA inh pH 4.5: blocks human alpha-galactosidase A at pH 4.5. P06280. activity change, negative = inhibition, % at 105 µM. purified enzyme, 4-MU-alpha-Gal fluorescence, pH 4.5. 230,000 tested, under 10 active; inconclusive = small, poorly fitted or top-dose-only inhibition, or a rising curve; inactive = flat fitted curve, though single readings scatter; no compound was filed as active;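 note: 0% = full activity with enzyme and -100% = basal without enzyme; dose as in the result columns while the protocol names 77 µM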
Target sequence (P06280 whole entry, looked up): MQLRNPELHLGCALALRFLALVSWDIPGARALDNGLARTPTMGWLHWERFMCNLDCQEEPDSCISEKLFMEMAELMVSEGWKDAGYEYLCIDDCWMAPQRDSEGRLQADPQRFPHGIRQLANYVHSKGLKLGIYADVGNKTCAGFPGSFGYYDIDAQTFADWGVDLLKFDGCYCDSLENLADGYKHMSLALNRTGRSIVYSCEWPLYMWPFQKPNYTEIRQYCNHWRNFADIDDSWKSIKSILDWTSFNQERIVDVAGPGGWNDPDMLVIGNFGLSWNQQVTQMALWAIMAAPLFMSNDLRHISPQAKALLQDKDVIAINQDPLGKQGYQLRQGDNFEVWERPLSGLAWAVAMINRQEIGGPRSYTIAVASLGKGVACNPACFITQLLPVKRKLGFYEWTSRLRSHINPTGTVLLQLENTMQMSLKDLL
Rango dissoc inh: prevents RanGTP from dissociating the Rango-importin beta complex | actives 0.071% (n = 340,000) | Potency, µM (titrated, usually from 46.1 µM), for the others: top-dose activity change, negative = inhibition | AID 540253 | Biochemical FRET Rango-importin beta, RanGTP-induced dissociation | O95149+P62826; active means falling FRET ratio curve, often poorly fitted, with flat reads before Ran was added; inconclusive means other falling curves, or compound fluorescence or quenching; inactive means flat or rising ratio curve;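 note: potency is the fitted concentration of half-maximal effect; % of control where 0% means no effect; nearly all actives have a fitted effect of over 45% in size; -100% = wells without RanGTP and RCC1; the record marks most hits as doubtful in a second field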
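Recombinant Rango FRET biosensor (EYFP–snurportin 1 IBB–cerulean CFP10) at 0.1 uM premixed with 0.25 uM importin beta in PBS, 1 mM DTT, 0.02% Tween-20, 0.1% BSA. Compound added 5 min; RanGTP-RCC1 (0.6 uM Ran, 2 mM GTP, 0.2 uM RCC1) then triggers release, read at 45 min.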
Rango-impB inh: inhibitors of Rango-importin beta complex formation; Q14974; Rango CFP/YFP FRET sensor + importin beta, 45 min; Potency, µM (titrated, usually from 92.2 µM), inactives show at the highest dose inhibition of complex formation; actives 0.031% (n = 340,000); active = rising FRET ratio curve, often small or poorly fitted; inconclusive = mostly compound fluorescence or quenching in the first reads; inactive = flat curves in all reads;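 note: potency is the fitted concentration of half-maximal effect; 0% = DMSO wells and 100% = buffer wells lacking importin beta; nearly all actives have a fitted effect of over 15% in size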
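FRET biosensor (snurportin 1 IBB flanked by EYFP and cerulean), 50 nM, with compound 5 min, then 0.125 microM importin beta in PBS, 1 mM DTT, 0.02% Tween-20, 0.1% BSA. CFP/YFP ratio read after 45 min at room temperature; pre-read flags interference.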
miR-21 reporter: miR-21 reporter, rising signal | HeLa miR-21 FLuc reporter, luciferase, 48 h | Potency, µM (doses to about 38.3 µM), for inactives: top-dose reporter change, positive = more light | 340,000 tested, under 10 active; active = well fitted rising curve with a large enough effect; inconclusive = small, poorly fitted or top-dose-only effect; inactive = no such curve, though single readings can be large or run the other way;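 note: % of control where 0% means no effect; miR-21 action dims this reporter so a rising signal means less miR-21 action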
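HeLa miR-21-FLuc reporter line, endogenous miR-21; 2000 cells/well in DMEM/10% FBS; compound titration up to ~40uM final, 48 h, 37 degree Celsius; luciferase detection reagent, 15 min lysis, CCD luminescence.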
Active calls of the source: *; ? = inconclusive; nt = not tested or not shown; & = joins results of further samples; [ ] = dose if it differs, or a comment. The list is partial; the hit share may differ from the screen's.

Rango dissoc inh	miR-21 reporter	Molecule	Rango-impB inh	GLA inh pH 4.5
1%	0%	Cn1c(=O)cc(SCC(=O)N2CCCC2)c2ccccc21	0.5%	-8
8%	1%	Cc1ccc(N(CC(=O)NCCSc2ccccn2)S(=O)(=O)c2ccc(F)cc2)cc1	-2.2%	?
6%	-5%	COc1cccc(CN2C(=O)N(C(C)C)C(N(O)C(=O)NC(C)C)C2(C)C)c1OC (stereo not given)	-13%	nt
19%	?	Cc1ccc(S(=O)(=O)N(C(=O)c2ccncc2)c2ccc(OC(=O)c3ccncc3)c3ccccc23)c(C)c1	-2.7%	0
19%	-3%	CCCc1cc(=O)[nH]c(SCc2cccnc2)n1	-2.6%	-3
?	-18%	Nc1nc(F)cc(NCc2ccccc2)n1	?	2
0%	-14%	Brc1cccc(CNCc2cccs2)c1	-5.9%	-4
-6%	nt	COc1cc(OC)cc(-c2c(-c3ccc(F)cc3)c3cc(-c4cnc(OC)nc4)ccc3n2C)c1	0.5%	nt
-14%	-13%	COc1cc(CN2CCC(CO)(CCOc3ccccc3)CC2)cc(OC)c1	-4.9%	-3
-5%	nt	N#CC1(NC(=O)CSc2nnc(-c3ccccc3F)n2N)CCCCC1	0.4%	nt
15%	-14%	CC(/C=N/NC(=O)c1cccc(F)c1)=C\c1ccccc1	1.7%	nt
0%	nt	CC1CCCCN1C(=O)CN1C(=O)NC2(CCCCC2C)C1=O (stereo not given)	-0.6%	nt
1%	nt	C=CCOC(=O)C1=C[C@H](c2ccc(Br)cc2)C[C@H](OCc2ccc(CO)cc2)O1	1.5%	nt
25%	27%	Cc1ccc(Sc2ccc(NC(=O)CCl)cc2)cc1C	4.4%	-13
6%	-2%	O=C(c1cccnc1)N1CCN(C(=O)c2ccccc2F)CC1	-0.5%	6
30%	-2%	CC(=O)Oc1ccc(-n2c(=O)c3ccccc3c3ccccc3c2=O)cc1	1.3%	6
-11%	-3%	Cc1c(Cl)cccc1N=c1c([N+](=O)[O-])nn(-c2ccccc2)n1O	0.8%	0
2%	-6%	CCOC(=O)c1cc(=O)n(-c2ccc(Cl)cc2C)[nH]1	6.6%	8
-22%	-3%	O=C(O)c1ccccc1SCC(=O)N1CCCCC1	3.8%	0
-13%	0%	COc1ccc(-n2c(Cc3cccn3C)nnc2SCC(=O)N2CCCc3ccccc32)cc1	-6.6%	-6
0%	-3%	Cc1cccc(NC(=O)CSc2nnc(Cn3nnc(-c4ccccc4)n3)n2-c2ccccc2)c1	-1.1%	-1
12%	-15%	CC(C)c1nnc(NC(=O)C2CCN(C(=O)c3ccco3)CC2)s1	-1.5%	nt
-8%	-4%	CCOC(=O)CN(C(=O)CSc1nnc(-c2ccc(OC)c(OC)c2)o1)c1ccccc1	-3.2%	6
13%	4%	CCCOC(=O)Oc1ccc2c(=O)c(Oc3cc(C)cc(C)c3)coc2c1	4.7%	-16
-1%	-6%	Cc1ccc(OCCCC(=O)Nc2ccc(N3CCOCC3)cc2)cc1	2.2%	6
1%	0%	COCCn1c(SCC(=O)NCC2CCCO2)nc2c(c1=O)SC(C)C2 (stereo not given)	-5.7%	-3
-19%	1%	CCN(CC)S(=O)(=O)c1ccc(Cl)c(NC(=O)COc2ccc(OC)cc2)c1	5.2%	5
0%	-8%	O=C(N/N=C/c1ccccc1)c1ccc(-c2ccccc2)cc1	0.6%	nt
8%	nt	CC1CCN(C(=O)COC(=O)c2cccc(NS(=O)(=O)c3ccccc3)c2)CC1	-4.9%	nt
-8%	0%	O=[N+]([O-])c1ccc(/C=N/NC(=S)Nc2ccc(Cl)cc2Cl)s1	5.0%	-11
24%	12%	COc1ccc(S(=O)(=O)N2CCCC(C(=O)Nc3cccc(C(C)=O)c3)C2)cc1 (stereo not given)	-1.5%	-9
-9%	-5%	NC(=O)C1CCN(C(=O)c2cnn(-c3ccccc3)c2NC(=O)c2ccco2)CC1	-2.1%	1
15%	-1%	Cc1nn(Cc2noc(C(=O)NCCc3ccccn3)n2)c(C)c1Br	-1.5%	nt
-6%	-8%	COC(=O)c1cn(Cc2ccccc2C)nn1	0.4%	14
1%	-6%	CC(=O)N(C)c1ccc(NC(=O)C(Sc2ccccc2)c2ccccc2)cc1 (stereo not given)	-0.8%	-11
0%	4%	COc1ccccc1N(CC(=O)N1CCN(c2ccccc2)CC1)S(=O)(=O)c1ccc(C)cc1	-0.8%	nt
-3%	-4%	CC(=O)c1c(O)cc(C)n(Nc2nc(C)cc(C)n2)c1=O	0.8%	-1
-7%	-26%	Cc1ccc(-n2cc(C(=O)c3ccccc3O)cn2)cc1	-1.1%	3
15%	nt	CS(=O)(=O)c1ccc(-c2sc3cc4c(cc3c2C(=O)NN2CCOCC2)OCO4)cc1	-4.7%	nt
14%	-5%	Cc1ccc(S(=O)(=O)NCc2ccco2)c(C)c1C	-0.2%	4
-11%	0%	Cc1cc(C)c(N=Cc2c(O)n(-c3nccs3)c(=O)c3ccccc23)c(C)c1	?	8
-20%	1%	Cc1cc(C(=O)Nc2ccccc2C(=O)O)c(C)o1	?	nt
20%	-6%	O=C(C1CCCCC1)N1CCCC(c2nc(-c3ccc(F)cc3)no2)C1 (stereo not given)	-4.0%	4
22%	-5%	CN(CC(=O)NCc1ccc(F)cc1)S(=O)(=O)c1cccc2nsnc12	7.4%	-7
-5%	-6%	CCOC(=O)n1c(=O)n(Cc2ccc(Cl)cc2Cl)c2ccccc21	1.5%	-4
-12%	-8%	Cc1c(N=C2NN=C(c3ccc(Cl)cc3)CS2)c(=O)n(-c2ccccc2)n1C	-6.4%	3[21.1 µM]
9%	0%	Cc1cc(C)c2ccc(=O)n(CC(=O)N/N=C/c3ccccc3Cl)c2n1	0.5%	4
41%	-60%	O=C(COc1ccccc1)Nc1ccc(Cl)cn1	7.6%	3
-1%	-1%	CN(C)CCCNC(=O)c1cc(C(=O)c2ccccc2F)c[nH]1	-0.8%	nt
0%	20%	O=C(/C=C/c1cn(-c2ccccc2)nc1-c1cccc(Cl)c1)N1CCN(c2ccccn2)CC1	-5.3%	-1
9%	2%	O=C1CS(=O)(=O)c2ccccc2N1	0.5%	nt
-3%	-5%	O=C(NCc1cccc(Cl)c1)C1CCC(=O)N(CCCN2CCCC2=O)C1 (stereo not given)	-1.0%	nt
-24%	-7%	O=C(CSc1ccc2nnc(-c3ccccn3)n2n1)NCc1ccc2c(c1)OCO2	-0.7%	-16
10%	0%	CC(C)CN(CC(C)C)c1nnc(NC(=O)Cn2c(=O)oc3ccccc32)s1	-1.8%	-4
1%	-4%	CCN(C(=O)N1CCOCC1)c1ccccc1	-1.1%	nt
?	1%	Cc1cc(N2CCOCC2)ccc1/C=C1\NC(=O)N(Cc2ccccc2F)C1=O	?	0
-15%	-4%	O=C(NCCCNC(=O)c1ccco1)c1ccc(Cl)c(Cl)c1	-1.2%	nt
-3%	?	Cc1ccc(C)c(-c2ccc(=O)n(Cc3c(F)cccc3Cl)n2)c1	-3.3%	nt
1%	nt	Clc1ccc(C=NN2CCCCCC2)cc1Cl	1.3%	nt
2%	-1%	CC(=O)c1c(C)[nH]c(C(=O)OCC(=O)Nc2sc3c(c2C#N)CCC(C)C3)c1C (stereo not given)	0.1%	4

Molecules from the list above containing a COOH group:
Rango dissoc inh	miR-21 reporter	Molecule	Rango-impB inh	GLA inh pH 4.5
-22%	-3%	O=C(O)c1ccccc1SCC(=O)N1CCCCC1	3.8%	0
-20%	1%	Cc1cc(C(=O)Nc2ccccc2C(=O)O)c(C)o1	?	nt

Continuation.
Rango dissoc inh	miR-21 reporter	Molecule	Rango-impB inh	GLA inh pH 4.5
-4%	-3%	O=C(NCc1cccnc1)C1COc2ccccc2O1 (stereo not given)	-0.9%	-1
0%	nt	O=c1[nH]c2cc(Cl)c(Cl)cc2o1	-0.9%	nt
2%	-1%	CN(C)C(=O)C1Cc2ccccc2CN1S(=O)(=O)c1cccs1 (stereo not given)	-0.2%	-8
16%	-3%	O=S(=O)(Cc1cc(Cl)nc(-c2ccccc2)n1)c1ccccc1	10.0%	-16
5%	-3%	CCOC(=O)c1[nH]c(C)c(C(=O)N2CCN(C(=O)c3ccco3)CC2)c1C	0.4%	-4
-18%	-1%	O=C(Cc1ccccc1)Nc1ccc(NC(=O)c2ccc(Br)cc2)cc1	-2.9%	nt
0%	-1%	Cn1c(SCC(=O)NC(=O)Nc2ccccc2)nnc1-c1ccncc1	0.6%	4
25%	3%	O=C(CN1c2ccccc2S(=O)(=O)c2ccccc21)Nc1ccccc1F	0.8%	nt
22%	-5%	Cc1cc(C(=O)NCc2ccccc2Cl)n(-c2ccccc2)n1	-4.5%	1
-17%	nt	CC(C)CN(C(=O)C1CCCO1)C1CCS(=O)(=O)C1 (stereo not given)	-1.2%	nt
0%	-19%	Cc1ccc(Nc2nnc(-c3ccncc3)s2)c(Br)c1	-0.5%	-3
9%	-2%	CCOC(=O)c1cc2c(C(F)(F)F)cc(-c3cccnc3)nc2o1	-1.2%	4
7%	1%&1%	COc1cccc(OCCSc2nc(C)c(Cc3ccccc3)c(=O)[nH]2)c1	-0.1%	6[21.1 µM]
1%	28%	O=C(N/N=C/c1cccs1)c1n[nH]c2c1CCCC2	-0.8%	-5
3%	1%	Cc1cccc(-n2c(Cc3ccccc3)nnc2SCC(=O)N2CCOCC2)c1	-4.5%	0
41%	nt	Clc1ccccc1-c1ccc2ncnc(NCc3cccs3)c2c1	-4.0%	nt
?	nt	N#C/C(=C/c1ccc(N2CCCCCC2)o1)c1ccc(F)cc1	?	nt
3%	-3%	COc1cc(/C=N/NC(=O)c2cccc(NC(=O)c3ccccc3)c2)ccc1O	-1.4%	nt
1%	5%	Cc1nn(-c2cccc3cccnc23)c(=O)c2ccccc12	-3.1%	4
1%	0%	CN(C)/C=C/C1=C([N+](=O)[O-])C(c2cccc([N+](=O)[O-])c2)NC(=O)N1 (stereo not given)	2.1%	2
7%	3%	COc1ccccc1C(=O)Nc1ccnn1C1CCN(Cc2ccccc2OCCO)CC1	0.2%	nt
-6%	29%	CCC[C@H](CN[C@@H](CNC)[C@H](C)CC)NCCc1cc(C(F)(F)F)cc(C(F)(F)F)c1	1.3%	nt
1%	-2%	Cc1ccc(NC(=O)C2CC(=O)N/C(=N/N=C/c3ccco3)S2)cc1 (stereo not given)	0.1%	0
-7%	-12%	Cn1c(SCC(=O)C(C)(C)C)nnc1-c1ccccn1	5.3%	2
-2%	8%	COc1ccc(NC(=O)CCCNC(=O)Cn2cnc3sc(C)c(C)c3c2=O)cc1Cl	?	nt
?	-1%	COc1ccc(C2=CC(c3cccc(OC)c3)n3nnnc3N2)cc1 (stereo not given)	?	-2
?	6%	COCCN1C=C(C(=O)OC)C(c2ccccc2Cl)C(C(=O)OC)=C1	?	?

In the list so far, these contain a thiophene ring, fused or not:
Rango dissoc inh	miR-21 reporter	Molecule	Rango-impB inh	GLA inh pH 4.5
0%	-14%	Brc1cccc(CNCc2cccs2)c1	-5.9%	-4
-8%	0%	O=[N+]([O-])c1ccc(/C=N/NC(=S)Nc2ccc(Cl)cc2Cl)s1	5.0%	-11
15%	nt	CS(=O)(=O)c1ccc(-c2sc3cc4c(cc3c2C(=O)NN2CCOCC2)OCO4)cc1	-4.7%	nt
2%	-1%	CC(=O)c1c(C)[nH]c(C(=O)OCC(=O)Nc2sc3c(c2C#N)CCC(C)C3)c1C (stereo not given)	0.1%	4
2%	-1%	CN(C)C(=O)C1Cc2ccccc2CN1S(=O)(=O)c1cccs1 (stereo not given)	-0.2%	-8
1%	28%	O=C(N/N=C/c1cccs1)c1n[nH]c2c1CCCC2	-0.8%	-5
41%	nt	Clc1ccccc1-c1ccc2ncnc(NCc3cccs3)c2c1	-4.0%	nt
-2%	8%	COc1ccc(NC(=O)CCCNC(=O)Cn2cnc3sc(C)c(C)c3c2=O)cc1Cl	?	nt
